From PubChem BioAssay
MT1-MMP act inh – blockers of MT1-MMP proenzyme processing, primary screen, HT1080 RFP-PRO-GFP cells, GFP/RFP fluorescence; actives 0.061% (n = 360,000); GFP/RFP ratio change, % at 20 µM; GFP/RFP ratio fluorescence, overnight; percent of plate control window, DMSO zero;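 active = GFP/RFP ratio change of at least 30% with cell ATP level not reduced by more than half and red fluorescence within 50% of control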; note: strong numbers were not always called active
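Test system: HT1080 cells expressing an RFP-PRO-GFP fluorescent reporter construct / Compound dosing: single-point 20 µM compound, 1% DMSO / Schedule: cells overnight before dosing, compound overnight, 37 °C, 5% CO2 / Evaluation: GFP/RFP fluorescence ratio / Control set: DMSO and RFP-L50D-GFP cell wells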
Rce1 inh – yeast Rce1p protease inhibitors, primary screen, biochemical, fluorescence, cell-free homogeneous; actives 0.27% (n = 290,000); AID 2563, 2010; yeast membranes, quenched prenylated peptide cleavage fluorescence; calls only; CAAX prenyl protease 2 (Saccharomyces cerevisiae (strain ATCC 204508 / S288c)), Q03530;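 active = fall in fluorescence gain of 50% or more versus controls, with final raw signal at or below 3038400; inconclusive = same 50% fall but final raw signal above 3038400; inactive = fall in fluorescence gain under 50%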;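 note: plate controls were neutral control wells for no effect and wells lacking membranes for full effect; tested at 10 µM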
Target sequence (Q03530 whole entry, looked up): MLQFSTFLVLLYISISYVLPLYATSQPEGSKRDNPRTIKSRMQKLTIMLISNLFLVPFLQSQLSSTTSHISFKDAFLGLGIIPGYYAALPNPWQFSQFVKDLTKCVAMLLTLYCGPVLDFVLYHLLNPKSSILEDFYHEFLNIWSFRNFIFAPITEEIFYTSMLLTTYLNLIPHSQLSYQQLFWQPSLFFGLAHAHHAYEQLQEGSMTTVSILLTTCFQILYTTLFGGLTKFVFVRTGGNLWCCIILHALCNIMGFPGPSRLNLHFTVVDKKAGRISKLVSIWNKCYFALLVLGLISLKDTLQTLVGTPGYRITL
HIV Env fusion – inhibitors of HIV-1 Env-driven cell-cell fusion, primary screen, HeLa-JRFL effector, CEM21 target cells, luciferase; inhibition, % at 12.3 µM; actives 1.1% (n = 360,000); AID 651610, 2012;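 active = mean replicate inhibition score of at least 50 and every replicate individually at or above 50; inconclusive = only one of the two criteria met; inactive = mean below 50 and not all replicates reaching 50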;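 note: 0% = plate neutral controls and 100% = maraviroc near 300 nM; one replicate is shown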
Yeast UUG start – modulators of yeast start codon fidelity, primary screen, whole organism, S. cerevisiae, single point, plate reader. S. cerevisiae UUG-firefly luciferase reporter, luminescence/redox ratio. activity score, % at 18.7 µM. actives 0.13% (n = 350,000);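 active = replicate mean at a twofold rise or more, about +100% in these data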;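 note: firefly luciferase made from a UUG start codon reports start codon fidelity; reporter light over untreated wells divided by growth signal over untreated wells; some hits fall short of that in this replicate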
CSC inhib – cancer stem cell viability inhibitors, primary screen, luminescence | cancer stem cell-like cells viability | inhibition, % at 7.5 µM | actives 1.1% (n = 300,000) | AID 2717, 2010;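 active = mean at 75% or more and at least half the replicates too; inconclusive = mean and replicates disagree; tested in HMLE shEcad cells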;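 note: 0% = median of negative and 100% = median of positive control wells; the first replicate is given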
PABP FP inh – PABP poly(A) RNA binding inhibitors, primary screen, biochemical, fluorescence polarization, uHTS. Polyadenylate-binding protein 1 (Homo sapiens), P11940. inhibition, % at 35 µM. AID 2014, 2009. actives 1% (n = 290,000);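 active = 50% or more with normal probe brightness, or confirmed in later tests; inconclusive = above 50% with abnormal brightness, or retests that disagree; inactive = below 50% or failed in later tests; about a fifth of its hits are not listed in these tables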;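 note: calls also rest on retests at 20 µM and on dose response follow-up; controls were probe without protein and protein plus probe with vehicle; some compounds called inactive have numbers as strong as hits; many hits fall short of the cut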
eIF4H FP inh – human eIF4H binding inhibitors, primary screen, translation initiation inhibitor project, biochemical, uHTS, fluorescence polarization; eIF4H fluorescence polarization binding assay; AID 2012, 2009; actives 0.94% (n = 290,000); inhibition, % at 35 µM; Eukaryotic translation initiation factor 4H (Homo sapiens), Q15056;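 active = 50% or more with normal probe brightness, or confirmed in later tests; inconclusive = above 50% with abnormal brightness, or retests that disagree; inactive = below 50% or failed in later tests; about a fifth of its hits are not listed in these tables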;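 note: calls also rest on retests at 20 µM and on dose response follow-up; 0% = protein and probe with vehicle and 100% = probe without protein; strong numbers were not always called active; many hits fall short of the cut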
MT1-MMP act inh RFP – further read-out of MT1-MMP act inh, marked with its call; RFP signal change, %; measured here: RFP expression control read;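 0 = vehicle wells; hits needed this value within 50% of zero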
Active calls of the source: *; i = inactive; ? = inconclusive; . = no result given; & = joins results of further samples; [ ] = another dose, or the depositor's remark.

SMILES	MT1-MMP act inh	MT1-MMP act inh RFP	Rce1 inh	HIV Env fusion	Yeast UUG start	CSC inhib	PABP FP inh	eIF4H FP inh
CN(CC(=O)Nc1ccc(C(N)=O)cc1)CC(=O)Nc1ccccc1Cl	4	4	i	8	.	-12	-5	-13
CN(C)c1ncnc2c1ncn2[C@H]1CN(Cc2cccnc2)C[C@@H](CO)O1	3	9	.	5	-25	.	.	.
Cc1ccc2nc(SCC(=O)Nc3ccc(F)cc3F)nc(=O)n2c1	-1	-1	i	-10	-15	-9	.	.
CC(SCc1ccccc1)C(=O)Nc1ccc2c(c1)OCO2 (centres undefined)	3	-4	i	-8	-9	-10	4	-6
Cc1nc(SCC(=O)c2ccccc2)c([N+](=O)[O-])[nH]1	7	4	i	-128	-16	-5	-1	-12
COc1ccccc1NC(=O)N1CCCC1C(=O)NCC1CCCO1 (centres undefined)	-1	1	.	4	.	4	-3	-6
O=C(CNCc1cccs1)NC12CC3CC(CC(C3)C1)C2	0	1	i	7	.	-17	-2	2
CCOC(=O)c1ccc2[nH]c3c(c2c1)CCCCC3=O	1	3	i	.	-3	2	0	-3
CC(C(=O)Nc1ccc(C#N)cc1)N(C)Cc1cccs1 (centres undefined)	0	-2	i	-11	-7	-16	1	-1
Cc1cc(C(=O)CSc2cccc[n+]2[O-])c(C)n1-c1ccc(Br)cc1	.	.	i	.	.	-2	-2	-6
COc1ccc(CCNC(=O)CSc2nc(-c3ccc(OC)c(OC)c3)ccc2C#N)cc1	-3	-2	i	4	.	-12	-17	3
Cc1ccn2c(=O)nc(SCC(=O)N3CCC(Cc4ccccc4)CC3)nc2c1	-2	4	i	-9	0	-11	.	.
CC1(C)Cc2cccc(OCC(=O)OCC(=O)Nc3ccccc3)c2O1	-3	0	i	.	7	.	.	.
CC1=NNC(=O)C1CCC(=O)N/N=C(/C)c1ccc([N+](=O)[O-])cc1 (centres undefined)	-4	-4	i	6	-7	-8	24	8
CCOC(=O)CN(C#N)c1nc(C)cc(C)n1	2	1	i	-145	5	-11	5	-3
O=C1CCC(C(=O)N(Cc2cccs2)C2(C(=O)NC3CCCCC3)CCCCC2)N1 (centres undefined)	-2	4	i	16	.	2	6	4
Cc1cccc(OCC(=O)NCCCNC(=O)c2cnccn2)c1	2	3	i	-3	.	.	-6	12
COc1cc(/C=C(\C#N)c2nc3c(s2)CC(C)CC3)ccc1O (centres undefined)	-264	5	i	-192	-14	-13	1	4
C=CCc1cccc(/C=N/n2c(C)nnc2C)c1O	-7	2	i	.	-12	-7	12	8
COC(=O)c1ccccc1NC(=O)Cn1cnc2c1c(=O)n(C)c(=O)n2C	-2	1	i	9	-25	-9	.	.
C[C@@H]1NC(=O)c2cc([N+](=O)[O-])cc(I)c2NCCCC[C@@H](C(N)=O)NC(=O)[C@H](CCC(=O)O)NC1=O	0	-1	.	.	-18	6	10	14
CN1C=CC(=O)[C@@H](O)[C@H]1c1ccccc1Br	-3	1	.	27	-17	.	.	.
COC(=O)CCCNS(=O)(=O)c1ccc2ccccc2c1	6	2	i	.	-1	.	-1	-5
CCN(CC)C(=O)Cn1cc(SCC(=O)NC2CCCCC2)c2ccccc21	-2	-2	.	9	-5	.	.	.
CC1CCCN(CCCNC(=O)c2ccc(N3CCCC3=O)cc2)C1 (centres undefined)	0	4	i	-1	-3	-12	.	.
Cc1ccccc1S(=O)(=O)N(C)C[C@@H]1OCc2cn(nn2)CCCC(=O)N([C@H](C)CO)C[C@H]1C	-2	4	.	-4[16.7 µM]	-10&6	.	.	.
O=C(COC(=O)c1ccc(CSc2ccc(Cl)cc2)cc1)Nc1ccccc1	4	-6	i	-16	0	-1	-11	-9
CCOc1ccc(Br)cc1S(=O)(=O)N1CC(C)OC(C)C1 (centres undefined)	6	2	i	-18	-3	-5	-3	-6
Cn1c(/C=C/c2ccccc2[N+](=O)[O-])nc2ccccc2c1=O	-3	-5	i	-11	-17	-3	16	6
CCOCC(=O)Nc1ccc([N+](=O)[O-])cc1Cl	0	2	i	-26	.	.	-5	-2
Cc1ccc(C)c(NC(=S)NNC(=O)c2csc3c2CCCC3)c1	-1	-7	i	16	-37	.	-6	6
CCn1c(SCC(=O)c2cc(C)n(-c3ccc(C(=O)OC)cc3)c2C)nnc1-c1cccnc1	0	0	i	7	-5	-10	6	-12
CCOc1ccccc1C(=O)Nc1ccc(C(=O)c2ccccc2)cc1	0	-1	i	-15	5	41	-3	-9
COc1ccccc1N(CC(=O)N/N=C(\C)c1ccccc1O)S(=O)(=O)c1ccc(C)cc1	-7	-10	i	-30	-1	11	-2	-2
N#Cc1ccc(NC(=O)CN2CCN(c3ccccn3)CC2)cc1	1	-6	i	-4	-9	-6	1	-12
CCCCN(CC)CCNC(=O)C1CCCN(S(=O)(=O)c2cccc3nsnc23)C1 (centres undefined)	2	5	i	5	-13	6	-9	6
CC(=O)Nc1ccc(N2C(=O)CSC2c2cccc([N+](=O)[O-])c2)cc1 (centres undefined)	6	6	i	22	.	-17	-12	4
CCNC(=O)C1(C)CCCN(Cc2csc(-c3ccccc3)n2)C1 (centres undefined)	-11	1	.	10	-19	.	.	.
COc1ccccc1-n1c(SC)nc2c(sc(=S)n2-c2ccccc2)c1=O	-2	-3	i	-9	-16	.	4	-8
O=C(NCCCNC(=O)c1ccccn1)c1ccc(Cl)cc1	-3	0	i	-6	-10	-2	-4	-18

Part of the list above, bar-delimited:
mol | MT1-MMP act inh | MT1-MMP act inh RFP | Rce1 inh | HIV Env fusion | Yeast UUG start | CSC inhib | PABP FP inh | eIF4H FP inh
O=C(COC(=O)c1ccc(CSc2ccc(Cl)cc2)cc1)Nc1ccccc1 | 4 | -6 | i | -16 | 0 | -1 | -11 | -9
CCOc1ccc(Br)cc1S(=O)(=O)N1CC(C)OC(C)C1 (centres undefined) | 6 | 2 | i | -18 | -3 | -5 | -3 | -6
Cn1c(/C=C/c2ccccc2[N+](=O)[O-])nc2ccccc2c1=O | -3 | -5 | i | -11 | -17 | -3 | 16 | 6
CCOCC(=O)Nc1ccc([N+](=O)[O-])cc1Cl | 0 | 2 | i | -26 | . | . | -5 | -2
Cc1ccc(C)c(NC(=S)NNC(=O)c2csc3c2CCCC3)c1 | -1 | -7 | i | 16 | -37 | . | -6 | 6
CCn1c(SCC(=O)c2cc(C)n(-c3ccc(C(=O)OC)cc3)c2C)nnc1-c1cccnc1 | 0 | 0 | i | 7 | -5 | -10 | 6 | -12
CCOc1ccccc1C(=O)Nc1ccc(C(=O)c2ccccc2)cc1 | 0 | -1 | i | -15 | 5 | 41 | -3 | -9
COc1ccccc1N(CC(=O)N/N=C(\C)c1ccccc1O)S(=O)(=O)c1ccc(C)cc1 | -7 | -10 | i | -30 | -1 | 11 | -2 | -2
N#Cc1ccc(NC(=O)CN2CCN(c3ccccn3)CC2)cc1 | 1 | -6 | i | -4 | -9 | -6 | 1 | -12
CCCCN(CC)CCNC(=O)C1CCCN(S(=O)(=O)c2cccc3nsnc23)C1 (centres undefined) | 2 | 5 | i | 5 | -13 | 6 | -9 | 6
CC(=O)Nc1ccc(N2C(=O)CSC2c2cccc([N+](=O)[O-])c2)cc1 (centres undefined) | 6 | 6 | i | 22 | . | -17 | -12 | 4

(next part)
SMILES	MT1-MMP act inh	MT1-MMP act inh RFP	Rce1 inh	HIV Env fusion	Yeast UUG start	CSC inhib	PABP FP inh	eIF4H FP inh
O=C1CCCCN1CCC(=O)N1CCCC(N2CCN(c3cccc(Cl)c3)CC2)C1 (centres undefined)	3	-1	i	9	-20	8	-11	-11
O=C(CC1SC(N2CCCCC2)=NC1=O)Nc1ccc(C(=O)Nc2ccccc2)cc1 (centres undefined)	-4	-6	i	47	2	2	.	.
C=CCN(CC=C)C(=O)c1ccc(OC2CCN(S(=O)(=O)N(C)C)CC2)cc1	1	-4	i	-25	.	-6	-4	1
COc1ccc(Cc2nc3ccc(C(=O)NCC4CCOCC4)cc3o2)cc1OC	3	0	i	-15	10	-8	11	-4
Cc1nc(NCCCO)c(C#N)c2c1COC(C)(C)C2	0	8	?	-80	.	-4	-2	-8
O=C(Nc1cccc(-c2nnn(CC(=O)N3CCc4ccccc4C3)n2)c1)C1CCC1	2	-3	i	.	2	.	14	-5
O=C(CCc1ccccc1)NNC(=S)NC(=O)c1ccc(Cl)cc1	.	.	i	9	.	4	-2	6
S=c1nc(-c2sccc2OCc2ccc(Cl)cc2Cl)[nH][nH]1	-1	-13	i	16	.	-3	34	9
Cc1cc(N2C(=O)c3ccccc3C2=O)n(C)n1	2	9	i	-8	.	-6	4	-2
COc1cc(/C=C2\Oc3cc(O)ccc3C2=O)ccc1O	-72	7	i	.	-44	-14	?	?
COc1cc(C(c2nnnn2C2CCCC2)N2CCc3ccccc3C2)ccc1O (centres undefined)	-5	-2	i	.	0	-4	5	2
CC(=O)N1c2ccc(S(=O)(=O)N3CCC(C(=O)N4CCCC(C)C4)CC3)cc2CC1C (centres undefined)	4	-18	i	-2	2	-8	.	.
Cn1cnnc1SCC(=O)c1cc2ccccc2oc1=O	-28	8	i	.	.	-1	11	8
CCOc1ccccc1NC(=O)Cn1nnc(C(=O)NCc2ccco2)c1N	11	0	i	.	-42	-2	4	1
Cc1ccccc1N1C(=O)Cc2ccccc2C1=O	0	2	i	-4	4	-14	-7	0
CN(C)c1cccc2c1c(NC(=O)Nc1ccc(F)cc1F)nn2C	2	3	i	8	.	15	-2	-1
COCc1ccccc1C1=CC(=O)C[C@H](c2ccc(F)cc2)C1	0	-1	.	3	-10	-13	.	.
N=c1c(C(=O)NCc2ccco2)cc2c(=O)n3ccccc3nc2n1CC1CCCO1 (centres undefined)	-7	0	i	19	0	-2	.	.
CC(C)NC(=O)Cc1ccc(Br)cc1	1	-1	i	-21	-3	-4	5	-14
O=C(C1=C(Nc2ccccc2)c2ccccc2S(=O)(=O)N1)c1ccccc1	0	3	i	-18	.	41	9	19
C/C(=C\c1ccccc1)C(=O)Nc1ccc(Cl)cn1	-2	-8	i	-146	-33	-6	4	-2
CC(C)(C)NC(=O)c1ccc(Cn2cc(C(F)(F)F)ccc2=O)cc1	0	4	i	12	0	6	7	-14
CC(=O)OCC1OC(n2cc(F)c(=O)[nH]c2=O)C(OC(C)=O)C1OC(C)=O (centres undefined)	-5	0	i	?	-8	12	.	.
COc1ccc(CCNC(=O)CCNC(=O)c2ccc(Cl)cc2)cc1OC	2	1	i	-13	.	-3	0	-1
Cc1ccc(OCc2cc(C(=O)N3CCN(C4CCCC4)CC3)no2)cc1C	-1	-1	i	-26	-4	37	3	-12
CCc1cccc(OCC(=O)Nc2ccccc2N2CCCC2)c1	-3	-5	i	2	.	-18	.	.

A portion of the library, so the mix of outcomes need not match the whole.
